Cruzain Triton – blocks cruzain activity in presence of Triton detergent; AID 1478; Potency, µM, without a hit: max response, negative = inhibition, actives largely listed as inhibitors; purified cruzain, Z-FR-AMC fluorescence, 0.01% Triton; P25779; 200,000 tested, 0.43% active;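 note: plate controls were neutral wells for no effect and buffer without enzyme for full effect; nearly all actives have a fitted effect of over 40% in size; top concentration of the series not given in the record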
Target sequence (P25779 123-467 limits assumed): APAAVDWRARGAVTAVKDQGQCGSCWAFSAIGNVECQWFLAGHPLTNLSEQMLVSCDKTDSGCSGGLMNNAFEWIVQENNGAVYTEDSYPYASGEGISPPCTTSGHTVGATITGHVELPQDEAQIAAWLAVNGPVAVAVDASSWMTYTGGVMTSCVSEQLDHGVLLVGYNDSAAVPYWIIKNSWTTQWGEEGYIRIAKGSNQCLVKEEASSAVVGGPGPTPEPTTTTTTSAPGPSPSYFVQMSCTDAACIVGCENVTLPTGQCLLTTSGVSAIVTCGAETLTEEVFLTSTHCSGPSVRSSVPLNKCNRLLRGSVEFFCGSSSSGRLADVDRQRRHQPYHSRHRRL
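Purified cruzain (1.5 nM final) was preincubated with compounds for 15 min at room temperature in 100 mM sodium acetate pH 5.5, 5 mM DTT, 0.01% Triton X-100. Reaction started with 2 uM Z-FR-AMC; AMC fluorescence change over 60 s gave activity.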
SARS PLpro yeast – SARS-CoV PLP inhibition in yeast | S. cerevisiae expressing SARS-CoV PLpro, growth rescue; control for the full effect not named in the record | Potency, µM (highest dose often 32.9 µM), for inactives: top-dose activity, positive = growth rescue | 330,000 tested, 0.19% active | AID 485353; active means well fitted rising curve with a large enough effect; inconclusive means small, poorly fitted or top-dose-only effect; inactive means no such curve, though single readings can be large or run the other way; note: 0% is about no effect; nearly all actives have a fitted effect of over 55% in size; growth read by luminescence after 48 h
LASV entry inh – inhibitors of Lassa virus binding or cell entry. Lassa virus pseudotype entry inhibition, cell reporter; control for the full effect not named in the record. Potency, µM (top dose mostly 37.9 µM), for inactives: at the highest dose activity change, negative = inhibition, most hits filed as inhibitors. 300,000 tested, 1.2% active. AID 540256; active means well fitted inhibition curve with a large enough effect; inconclusive means small, poorly fitted or top-dose-only effect, or effect the other way; inactive means flat fitted curve, though single readings scatter; tested in HEK293 cells; note: % is set by controls: 0 for no effect and ±100 for the full control effect; nearly all actives have a fitted effect of over 50% in size; luciferase read-out
NS1 function inh – blocks influenza NS1 protein function. S. cerevisiae slowed by influenza A NS1, growth recovery by OD600. Potency, µM (top dose mostly 46.1 µM), for inactives: top-dose activity, positive = more growth. 270,000 tested, 0.4% active. AID 2326; active means well fitted rising curve with a large enough effect; inconclusive means small, poorly fitted or top-dose-only effect; inactive means no such curve, though single readings can be large or run the other way; note: nearly all actives have a fitted effect of over 50% in size
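Recovery from NS1-induced slow growth read by OD600 in budding yeast switched to galactose assay medium (pH 6.0, -URA) at 1:100 dilution. Compound 23 nl per well; the matching strain lacking NS1 serves as control.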
Marburg entry inh – blocks Marburg virus binding to or entry into cells; 300,000 tested, 1.8% active; Marburg virus pseudotyped entry inhibition, cell reporter; control for the full effect not named in the record; about a third of the inactives were read at about 46 µM; AID 540276; Potency, µM (top dose mostly 37.8 µM), for inactives: at the highest dose activity change, negative = inhibition, actives largely listed as inhibitors; active = well fitted inhibition curve with a large enough effect; inconclusive = small, poorly fitted or top-dose-only effect, or effect the other way; inactive = flat fitted curve, though single readings scatter; tested in HEK293 cells; about a fifth of its hits are not listed in these tables; note: % is set by controls: 0 for no effect and ±100 for the full control effect; luciferase read-out
2A StopGo – lowers the luciferase signal of an FMDV 2A StopGo reporter; 410,000 tested, 1.2% active; AID 1159524; Potency, µM (highest dose often 57.9 µM), for the others: at the top dose signal change, negative = less light; human cells with a luciferase reporter of 2A StopGo recoding; control for the full effect not named in the record; active = well fitted falling curve with a large enough effect; inconclusive = small, poorly fitted or top-dose-only effect; inactive = no such curve, though single readings can be large or run the other way; tested in HEK293T cells; note: % is set by controls: 0 for no effect and ±100 for the full control effect; nearly all actives have a fitted effect of over 45% in size; luciferase light after 4 h
RE007 growth inh – less growth of the S. pombe RE007 Vpr strain. S. pombe RE007 Vpr strain, BacTiter-Glo ATP luminescence, 24 h; control for the full effect not named in the record. Potency, µM (titrated, usually from 92.2 µM), inactives show at the top dose activity change, negative = less growth. 360,000 tested, 0.21% active; active = well fitted falling curve with a large enough effect; inconclusive = small, poorly fitted or top-dose-only effect; inactive = no such curve, though single readings can be large or run the other way;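 note: % is set by controls: 0 for no effect and ±100 for the full control effect; nearly all actives have a fitted effect of over 50% in size; the assay follows cell death caused by Vpr and the record does not say whether a fall means rescue or toxicity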
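Fission yeast RE007 carrying one integrated HIV-1 vpr copy, seeded at OD 0.01 in PMG+AL medium with 23 nL pinned compound. Grown 24 h at 30 degrees; viability read by BacTiter-Glo luminescence after 5 min.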
Cruzain noTriton – inhibitors of Trypanosoma cruzi cruzain without detergent | P25779 | purified cruzain, Z-FR-AMC fluorescence, no detergent | Potency, µM, for the others: max response, negative = inhibition, hits mostly inhibitors | 200,000 tested, 2.3% active;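 note: plate controls were enzyme without inhibitor for no effect and buffer without enzyme for full effect; nearly all actives have a fitted effect of over 40% in size; top concentration of the series not given in the record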
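Detergent-free condition (0.00005% Triton X-100) in acetate buffer pH 5.5 with DTT. 1.5 nM enzyme and compound were pre-mixed 15 min, then 2 uM Z-FR-AMC substrate added; reaction progress from fluorescence change between first and third reads (60 s).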
* marks the source's active call; other numbers are inactive results; ? = inconclusive; . = no result given; & = joins results of further samples; [ ] = remark or other dose. Unless noted, calls come from the whole dose curve; as a rule, active = well fitted curve in the direction sought with a large enough effect; inconclusive = small, poorly fitted or top-dose-only effect, or another doubt; inactive = no such curve, though single readings can be large; an effect the other way counts as inactive or inconclusive. Potency is the fitted concentration of half-maximal effect.

SMILES | Cruzain Triton | SARS PLpro yeast | LASV entry inh | NS1 function inh | Marburg entry inh | 2A StopGo | RE007 growth inh | Cruzain noTriton
O=C(CCn1c(=O)c2cccn2c2cccnc21)NCc1cccc(Br)c1 | -0.5% | . | -4%[46.1 µM] | . | . | -8% | . | 2%
CCCCN(C)C(=O)CS(=O)(=O)Cc1nc(-c2cccc(OC)c2)oc1C | -0.5% | 8% | . | -6% | . | -18% | 18% | 10%
COc1ccc(CCN2CC(C(=O)NCCc3ccc(C)cc3)CC2=O)cc1OC (stereo not drawn) | 0.3% | -1% | 9%&6%[46.1 µM] | . | 22%&22%[46.1 µM] | -12%&-13% | 9% | -3%
C[N+]1(C)CCC(=C2c3ccccc3CC(=O)c3sccc32)CC1 | -3.4% | 3% | 0% | 33% | -6%&-6%&-6% | -14% | -18% | -5%
O=C(COc1ccccc1)NCC1(N2CCCCC2)CCCCC1 | . | 3% | -6% | -3% | 25%[46.1 µM] | -6% | -22% | .
CC1(C)CN(c2ccc(C(=O)c3ccccc3)cc2)C1=O | . | 1% | -1%[46.1 µM] | . | ? | -15% | -11% | .
O=C(NN1C(=O)C2C3C=CC([C@@H]2C1=O)C31CC1)c1ccccc1 (stereo partly drawn) | . | 2% | . | 3% | . | -15% | -9% | .
CCc1ccc(N2CC(C(=O)Nc3cc(C)on3)CC2=O)cc1 (stereo not drawn) | . | 0% | -6% | -3% | 5% | 25% | 26% | .
CCOC(=O)c1cc(S(=O)(=O)N2CCN(C3CCCCC3)CC2)cn1C | . | -7% | . | -4% | . | -1% | 7% | .
CSc1ccccc1NC(=O)c1c(Br)cnn1C | -3.0% | -8% | 12% | -11% | 0% | -11% | ? | -7%
Cn1cc(CC(=O)Nc2cccc(C#N)c2)c2ccccc21 | -1.0% | -4% | -1% | -15% | -27% | 58%[activator] | -15% | -3%
O=C(c1ccc2c(=O)n(Cc3ccc(Cl)cc3)c(=S)[nH]c2c1)N1CCOCC1 | . | ? | ? | 9% | -16%[46.1 µM] | ? | 1% | .
COc1ccc(N2CCN(C(=O)c3ccc(C)c(NC(=O)c4nsc5ccccc45)c3)CC2)cc1 | 1.9% | . | 18%[46.1 µM] | . | . | -20% | . | -18%
O=C(CCN1C(=O)/C(=C/c2ccccc2Cl)SC1=S)NCCc1ccc(O)cc1 | . | 8% | . | -10% | . | -5% | 2% | .
Cc1ccc(CN(N=Nc2nonc2N)c2nonc2N)c(C)c1 | . | . | ? | . | ? | -20% | 16% | .
O=C(O)CC/C(=C\c1cc2c(cc1Br)OCO2)c1nc2ccccc2s1 | . | -7% | 7%[46.1 µM] | -14% | 5%[46.1 µM] | 21% | 5% | .
O=C(CSCC(=O)OCC(=O)c1ccc(Br)cc1)Nc1cccc2ccccc12 | -14% | -22% | 2% | -11% | -7% | 12% | 12% | -17%
Cc1cc(C(=O)NNC(=S)Nc2ccccc2)nn1C | . | 1% | ? | 3% | 0%[46.1 µM] | 43%[activator] | 0% | .
S=C(NCc1ccc(Cl)cc1)Nc1ccc(Cl)cc1Cl | -3.7% | -18% | -26% | 14% | ? | 9% | -11% | ?
CCC(=O)N1CCc2cc(S(=O)(=O)N3CCN(c4ccccc4)CC3)ccc21 | . | 0% | . | 14% | . | -27% | 13% | .

Filtered by structure: the entries above containing bromine (4)
SMILES | Cruzain Triton | SARS PLpro yeast | LASV entry inh | NS1 function inh | Marburg entry inh | 2A StopGo | RE007 growth inh | Cruzain noTriton
O=C(CCn1c(=O)c2cccn2c2cccnc21)NCc1cccc(Br)c1 | -0.5% | . | -4%[46.1 µM] | . | . | -8% | . | 2%
CSc1ccccc1NC(=O)c1c(Br)cnn1C | -3.0% | -8% | 12% | -11% | 0% | -11% | ? | -7%
O=C(O)CC/C(=C\c1cc2c(cc1Br)OCO2)c1nc2ccccc2s1 | . | -7% | 7%[46.1 µM] | -14% | 5%[46.1 µM] | 21% | 5% | .
O=C(CSCC(=O)OCC(=O)c1ccc(Br)cc1)Nc1cccc2ccccc12 | -14% | -22% | 2% | -11% | -7% | 12% | 12% | -17%

More structures.
SMILES | Cruzain Triton | SARS PLpro yeast | LASV entry inh | NS1 function inh | Marburg entry inh | 2A StopGo | RE007 growth inh | Cruzain noTriton
CNC(=S)N/N=C/c1ccc(-c2ccc(Cl)c([N+](=O)[O-])c2)o1 | . | -1% | -14% | 1% | ? | -20% | -2% | .
Cc1ccccc1C1CC(c2ccc(Br)cc2)Nc2nc(N)nn21 (stereo not drawn) | -3.3% | 2% | . | -5% | . | ? | 1% | 12%
CC1CCCN(Cc2nc3c(c(=O)n(C)c(=O)n3C)n2Cc2c(F)cccc2Cl)C1 (stereo not drawn) | -6.7% | -3% | . | -53% | . | -17% | -16% | 6%
COc1ccc(C(=O)COc2ccc3c(C)cc(=O)oc3c2)cc1 | . | 8% | . | 1% | . | 7% | -1% | .
CC1CCCN(C(=S)Nc2ccc(Nc3ccccc3)cc2)C1 (stereo not drawn) | . | -2% | ? | 11% | -24%[46.1 µM] | 0% | 5% | .
COc1ccc(OC)c(NC(=S)N2c3ccccc3CC2C)c1 (stereo not drawn) | . | 19% | . | -24% | . | -5% | 6% | .
Cc1ccc2c(=O)cc(C(=O)N(Cc3ccc(N(C)C)cc3)C3CCS(=O)(=O)C3)oc2c1 (stereo not drawn) | -3.7% | . | -21%[46.1 µM] | . | -10%[46.1 µM] | -14% | . | 2%
CC(=O)N1CC(=O)Nc2ccc(C)cc2C1c1ccccc1 (stereo not drawn) | . | -1% | . | 3% | . | -15% | -4% | .
CC1CCCCN1C(=O)CSCC(=O)Nc1nc(-c2cccs2)cs1 (stereo not drawn) | -11% | -22% | . | -31% | . | 0% | 3% | -20%
Cc1cccn2cc(-c3cccc(NS(=O)(=O)c4ccc(Cl)c(Cl)c4)c3)nc12 | -4.4% | . | -6%[46.1 µM] | . | 16%[46.1 µM] | 35%[activator] | . | -28%
Cc1cc(C)cc(OCC(=O)Nc2nonc2NC(=O)COc2cc(C)cc(C)c2)c1 | -4.4% | 7% | 5% | -1% | 1% | -6% | 29% | ?
CCOc1ccccc1NC1(c2ccccc2)C(=O)c2ccccc2C1=O | -6.1% | . | -1%[46.1 µM] | . | . | 6% | . | ?
COC(=O)c1ccc(CNCC(=O)Nc2ccc(C(=O)OC)cc2)cc1 | 1.8% | 14% | 11% | 4% | -1% | -9% | 8% | -11%
Cc1ccc(C(=O)NC2CC3CCCC(C2)N3C(=O)NC2CCCCC2)cc1 (stereo not drawn) | -2.4% | 7% | . | -56% | . | . | . | 2%
CCN(Cc1ccccc1)S(=O)(=O)c1ccc(OC)c2ncccc12 | . | 0% | . | -8% | . | -13% | -1% | .
CCc1ccc(NC(=O)C2CCN(S(=O)(=O)c3c(C)noc3C)CC2)cc1 | -2.5% | -5% | -3%[46.1 µM] | 1% | 6%&6%[46.1 µM] | -27%&0% | -1% | -12%
Cc1ccc(-c2nn(-c3cccc([N+](=O)[O-])c3)c3c2cnc2ccc(F)cc23)cc1 | -0.4% | . | -16%[46.1 µM] | . | . | 15% | . | 7%
Cc1ccc(NS(=O)(=O)c2ccc(-n3cccn3)cc2)nc1 | . | -1% | . | -10% | . | 76%[activator] | -6% | .
O=C(Cn1cc2c(n1)CCCC2)NCc1cccc(Cl)c1 | -3.9% | 0% | . | -19% | . | 0% | 4% | -7%
Cc1c(O)c(CN(C)C)cc2c1oc(=O)c1ccccc12 | . | -1% | 3% | -40% | -8%[46.1 µM] | -21% | -8% | .
Cc1cc(C)c(C(=O)CN2CCOCC2)c(C)c1 | -0.6% | -11% | -29% | -19% | -30% | -13% | -5% | 2%
CC(C)CCn1c(SCc2ccc(F)cc2Cl)nc2ccsc2c1=O | 0.5% | . | ? | . | . | -22% | . | -12%
COc1cccc(NC(=O)CNC(=O)c2ccc(F)cc2)c1 | 2.0% | 1% | ? | -49% | 6% | 20% | 50% | -5%
CC(C)(C)c1ccc(OCCSc2nc3ccccc3n2CC(=O)O)cc1 | . | 0% | . | 6% | . | 0% | 0% | .
CCOCc1nnc(NC(=O)C2CCN(C(=O)C3CC(=O)N(c4ccc(C)cc4)C3)CC2)s1 (stereo not drawn) | . | -2% | -11%[46.1 µM] | 2% | -11%[46.1 µM] | 7% | -12% | .
CCNC(=O)CSc1nnc(-c2ccc(OC)cc2)n1CC(C)C | 0.3% | -5% | 15% | 2% | 6% | 8% | 13% | -3%
O=C(c1cccc(Cl)c1)N1CCN(Cc2c[nH]c3ccccc23)CC1 | . | 0% | -4% | 0% | 0%[46.1 µM] | -16% | -15% | .
O=C(CCc1nnc(COc2ccccc2)o1)NCc1ccccc1C(F)(F)F | . | -1% | . | 0% | . | 42%[activator] | 7% | .
COc1ccccc1CNC(=O)CSc1nc2nc(C)c(Cc3ccccc3C)c(C)n2n1 | 2.3% | . | ? | . | 19%[46.1 µM] | -28% | . | 9%
CC(C)C[C@H](NC(=O)[C@@H]1Cc2ccccc2CN1C(=O)OC(C)(C)C)C(=O)NCC1CCC(C(=O)O)CC1 (stereo partly drawn) | . | 0% | 12% | 1% | -1%[46.1 µM] | 1% | -13% | .
COc1ccc(NS(=O)(=O)c2cn(C)cn2)cc1OC | . | -7% | . | -8% | . | -7% | -4% | .
CCOc1ccccc1N(C(C)=O)S(=O)(=O)c1ccc(Cl)cc1 | . | -7% | 1% | -1% | 3%[46.1 µM] | 2% | -9% | .
COc1ccc(C=O)cc1OC1C=CCCC1 (stereo not drawn) | . | 2% | . | 5% | . | -3% | 0% | .
COCCCn1c(SCC(=O)NC(C)C)nnc1-c1ccccc1 | -0.3% | -2% | 6% | 8% | 9% | 9% | 3% | -5%
C#CCn1c(=NC(=O)c2ccco2)sc2cccc(Cl)c21 | . | 0% | -17% | -10% | 6%[46.1 µM] | 1% | -1% | .

Not a hit list. About 4.6% of those tested had a hit in this group.
